HSD17B inh: qHTS Assay for Inhibitors of HSD17B4, hydroxysteroid (17-beta) dehydrogenase 4 | 3-hydroxyacyl-CoA dehydrogenase type-2 (Homo sapiens), Q99714 | recombinant HSD17B10, NADH fluorescence kinetic; many of its hits are not listed in these tables | Potency, µM (titrated, usually from 57.1 µM), inactives show at the highest dose activity change, negative = inhibition, hits mostly inhibitors | 7.6% of 75,000 active; active = well fitted inhibition curve with a large enough effect; inconclusive = small, poorly fitted or top-dose-only effect; inactive = no such curve, though single readings can be large or run the other way;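 also: the protocol describes HADH2 (HSD17B10) and not the HSD17B4 of the title; nearly all actives have a fitted effect of over 70% in size; most hits overshoot -100% by far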
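His-tagged E. coli-expressed HADH2 at 20 nM in 100 mM Tris-HCl pH 9.0 with 0.01 % Tween-20, preincubated 15 min with compound at room temperature. Reaction with 1 mM NAD+ and 90 uM beta-hydroxybutyryl coenzyme A; NADH fluorescence (360/450 nm) read kinetically over 4 min, last minus first point.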
Active calls of the source: *; [ ] = dose if it differs, or a comment. % is scaled to controls: 0 for no effect and ±100 for the full control effect; potency is read from the fitted curve at half-maximal effect. An excerpt; the hit share may differ from the screen's.

For CCOc1cc([C@H]2[C@@H]3CCCC[C@]3(O)CCN2CC(=O)NCc2ccco2)ccc1O the results were HSD17B inh -2%.
Screening Cc1cccc(C)c1NC(=O)CSc1nnc(CCCCCNC(=O)OC(C)(C)C)o1 returned HSD17B inh 7%.
`O=C(CCn1cccc1)Nc1ccccc1F` gave HSD17B inh -1%.
Screening Cc1cccc(OCCSc2nnc(-c3ccoc3C)n2C)c1 returned HSD17B inh -1%.
Screening O=C(N1CCOCC1)N1CCN(c2ccccc2F)CC1 returned HSD17B inh 11%.
Screening CC1CCCN(C(=O)Cc2ccc(F)cc2)C1 (stereo unspecified) returned HSD17B inh 4%.
`CSCCc1nc(SCC(=O)Nc2nnc(C)s2)[nH]c1C` gave HSD17B inh 1%.
COc1ccc2nc(NC(=O)C3CCN(S(=O)(=O)c4cccc5nsnc45)CC3)sc2c1 was read as HSD17B inh -7%.
O=C(c1ccco1)N1CCN(C(=O)c2cc3sccc3n2Cc2ccccc2)CC1 was read as HSD17B inh -7%.
`Cc1cc(C)c2cc(CN(CCO)C(c3nnnn3Cc3ccc(F)cc3)C(C)C)c(=O)[nH]c2c1` (stereo unspecified) gave HSD17B inh inconclusive.
N#CC1=C(N)S[C@H](C(=O)C23CC4CC(CC(C4)C2)C3)[C@H]1c1ccncc1 was read as HSD17B inh 16µM*.
`CC(C)c1ccccc1S(=O)c1ccccc1C(C)(C)O` (stereo unspecified) gave HSD17B inh -2%[11.4 µM].
`CCn1c(CNC(=O)c2cccc(C)c2)nnc1SCC(=O)Nc1cccc(OC)c1` gave HSD17B inh 8%.
Screening CCCCC(=O)Nc1ccc2c3c(cccc13)C(=O)N2CC returned HSD17B inh 12%.
COC(=O)c1cccc(C23CC4(C2)[C@H](CN(CC2CCCCC2)[C@@H]4c2ccccc2)C3c2ccccc2)c1 (stereo partly specified) was read as HSD17B inh -1%.
`NC(=O)C1CCN(CCC(=O)Nc2cccc(Cl)c2)CC1` gave HSD17B inh 3%.
For Cn1c(Sc2ccc(-c3cccnc3)n2C)ccc1-c1cccnc1 the results were HSD17B inh -16%[11.4 µM].
Screening CN1CCN(c2ncncc2-c2ccccc2Cl)CC1 returned HSD17B inh -16%.
O=C(Nc1ccc(S(=O)(=O)N2CCN(Cc3ccccc3)CC2)cc1)c1cnccn1 was read as HSD17B inh -13%.
For O=C(NCCCN1CCCC1)c1ccc(CS(=O)(=O)c2ccc(Br)cc2)o1 the results were HSD17B inh 9%.
O=C(O)CCN1CCOCC1 was read as HSD17B inh 5%.
For CS(=O)(=O)c1ccc(Cl)c(S(=O)(=O)NCc2ccccc2)c1 the results were HSD17B inh -8%.
For CCC(=O)N1CCc2cc(S(=O)(=O)CCC(=O)Nc3nc(C)cs3)ccc21 the results were HSD17B inh 1%.
Screening COc1cc(-c2nc(Cc3ccccc3Cl)no2)cc(OC)c1OC returned HSD17B inh inconclusive.
Cc1cccc(CNc2cc(-c3ccoc3)ncn2)c1 was read as HSD17B inh inconclusive.
`Fc1ccccc1OCCCN1CCOCC1` gave HSD17B inh 2%.
CC(=O)c1c(C)[nH]c(C(=O)Nc2cc(C)ccc2C)c1C was read as HSD17B inh 2%.
For COC(=O)[C@@H]1C[C@@]2(O)[C@H](O)[C@H](O)[C@H](O)C[C@H]2N1Cc1ccc(-c2ccccc2)cc1 the results were HSD17B inh -29%.
c1ccc2oc(CCc3nc4ccccc4o3)nc2c1 was read as HSD17B inh 9%.
Screening O=C(Nc1ccc2c(c1)OCO2)C1CCN(C(=O)CSc2ncnc3ccccc23)CC1 returned HSD17B inh -18%.
`CCn1c(COc2ccccc2)nnc1SCC(=O)NC1CCCCC1` gave HSD17B inh 2%.
For COC(=O)Cn1cnc2c(C#N)c3n(c2c1=O)CCCCC3 the results were HSD17B inh 5%.
Screening CC(=O)NCCOC(=O)Nc1ccncc1 returned HSD17B inh 16%.
CCOC(=O)C1CCCN(C(=O)c2cc3c(=O)n(C)c4ccccc4c3n2C)C1 (stereo unspecified) was read as HSD17B inh 6%.
CO[C@@H]1COC(=O)CCC[C@@H](C)[C@H](OC)COC(=O)CCC[C@H]1C was read as HSD17B inh 5%[11.4 µM].
Screening O=C(Cn1nnc2ccccc21)NCc1ccccc1 returned HSD17B inh 25µM*.
For CCOc1ccc(C(=O)N2CCN(Cc3ccccc3)CC2)cc1 the results were HSD17B inh -5%.
`Cc1csc(NC(=O)CSc2nc(C)cs2)n1` gave HSD17B inh 2%.
Screening O=C(Cc1coc(-c2ccc(F)cc2)n1)N1CCOCC1 returned HSD17B inh -1%.
Screening Cc1cnc(-c2nnc(N(C)C(=O)c3cnccn3)s2)cn1 returned HSD17B inh -3%.
O=C1Nc2ccccc2C(O)(C(=O)NCc2ccco2)N1c1ccccc1 (stereo unspecified) was read as HSD17B inh -1%.
Screening OC(COc1ccc(Cl)cc1)CN1C2=NCCCN2c2ccccc21 (stereo unspecified) returned HSD17B inh 3%.
Screening CCc1ccccc1NC(=O)CSc1nnc([C@@H](N)Cc2ccccc2)o1 returned HSD17B inh 10%.
For O=C(NC1CCCC1)C1CC1c1ccccc1 (stereo unspecified) the results were HSD17B inh 10%.
Screening C[C@H]1CC[C@H]2C(=O)N3[C@H](c4ccc(Br)cc4)[C@@H](C)CC[C@H]3C(=O)N2[C@@H]1c1ccc(Br)cc1 returned HSD17B inh 2%[11.4 µM].
`O=C(COc1ccc(S(=O)(=O)N2CCCCC2)cc1)NCc1ccncc1` gave HSD17B inh 3%.
`COc1ccc(OC)c(C2C(C#N)=C(N)Oc3c2c(C)nn3-c2cccc(Cl)c2)c1` (stereo unspecified) gave HSD17B inh -3%.
Cc1ccc(-c2nc3cc(C)ccc3o2)cc1 was read as HSD17B inh 32µM*.
Screening O=C1OCCC1S(=O)(=O)c1ccc2ccccc2c1 (stereo unspecified) returned HSD17B inh 6%.
O=C(CN1C(=O)C2(OCCO2)c2ccccc21)c1ccc(Cl)cc1 was read as HSD17B inh 7%.
O=C(NCC1CCCO1)c1cc(-c2ccccc2)on1 (stereo unspecified) was read as HSD17B inh -1%.
For Cc1cc2c(c(=O)n1CCCn1ccnc1)C(c1ccco1)C(C#N)=C(N)O2 (stereo unspecified) the results were HSD17B inh -1%.
`CCCCCN(C(=O)NC(=O)NC(C)CC)S(C)(=O)=O` (stereo unspecified) gave HSD17B inh -1%.
For Cc1cccc(N(C)S(=O)(=O)c2cccc3nsnc23)c1 the results were HSD17B inh -5%.
COCCN1CN(S(=O)(=O)c2ccccc2)c2nc3ccccc3nc21 was read as HSD17B inh inconclusive.
For Cc1nn2c3ccccc3nc2c2ccccc12 the results were HSD17B inh 32µM*.
O=C1c2ccccc2C(=O)N1CCCc1nc(-c2cccnc2)no1 was read as HSD17B inh -4%.
Screening Nc1nonc1C(=O)NCCNCc1ccccc1OCc1ccccc1F returned HSD17B inh 4%.
Screening O=C1CN(C(=O)c2cccs2)c2ccccc2N1 returned HSD17B inh 6%.
For CCCCCOC(=O)c1[nH]c2c(c1C)C(=O)CC(c1ccco1)C2 (stereo unspecified) the results were HSD17B inh -14%.
O=C(CSc1nnc(Cc2ccccc2)n1-c1cccc(Cl)c1)N1CCOCC1 was read as HSD17B inh -5%.
Screening CC1=CCC2C(=O)N(c3nc4ccccc4n3C)C(=O)C2C1 (stereo unspecified) returned HSD17B inh -5%.
O=C(CNC(=O)c1ccco1)OCC(=O)c1ccccc1 was read as HSD17B inh 11%.
For Cc1nn(CC(O)Cn2c3c(c4ccccc42)CCN(C)C3=O)c(C)c1Br (stereo unspecified) the results were HSD17B inh 32µM*.
CCC(c1nnnn1C1CCCC1)N1CCN(c2ccccc2)CC1 (stereo unspecified) was read as HSD17B inh 5%.
Screening O=c1[nH]c2ccccc2nc1Cc1ccccc1 returned HSD17B inh 32µM*.
`Nc1c(Cl)cc(Cl)cc1Cl` gave HSD17B inh 7%.
For O=C(O)CCc1ccc(-c2cccs2)n1Cc1ccco1 the results were HSD17B inh 32µM*.
Cc1cc(C)c2c(n1)nn1c(N3CCN(c4ccccc4C)CC3)cc(C)nc21 was read as HSD17B inh 5µM*.
Screening CCOc1ccc(C2CC(c3ccc(F)cc3)n3ncnc3N2)cc1 (stereo unspecified) returned HSD17B inh -4%.
CCOc1ccc(OCC)c(NC(=O)C(NS(=O)(=O)c2ccc3c(c2)oc(=O)n3C)C(C)C)c1 (stereo unspecified) was read as HSD17B inh 4%.
`CCN(CC)S(=O)(=O)c1ccc(NC2c3ccccc3C(=O)N2CCN2CCOCC2)cc1` (stereo unspecified) gave HSD17B inh 0%.
`CCOc1ccc(-n2ccnc2SCC(=O)Nc2nnc(C)s2)cc1` gave HSD17B inh 13%.
COc1ccc(-c2nc(-c3ccccc3OC)no2)cc1OC was read as HSD17B inh inconclusive.
For Cc1cccc(CNc2ccnc(-c3cccnc3)n2)c1 the results were HSD17B inh -11%.
COc1ccc2[nH]c(=O)c(CN(CC3CCCO3)C(=O)Nc3ccc(F)cc3)cc2c1 (stereo unspecified) was read as HSD17B inh 25µM*.
COC(=O)c1ccc(C23CC4(C2)[C@H](CN(Cc2ccc(C(F)(F)F)cc2)[C@@H]4c2ccccc2)C3c2ccccc2)cc1 (stereo partly specified) was read as HSD17B inh 5%.
For c1csc(CNc2ncnc3ccc(-c4ccc5c(c4)OCO5)cc23)c1 the results were HSD17B inh 25µM*.
Screening O=C(Cn1nc(-c2ccccc2)ccc1=O)NCc1ccc2c(c1)OCO2 returned HSD17B inh 36%[activator].
NS(=O)(=O)c1ccc(NC(=O)N[C@@H](Cc2ccccc2)C(=O)O)cc1 was read as HSD17B inh 5%.
For COc1ccccc1CNc1ncncc1-c1ccccc1CN(C)C the results were HSD17B inh -2%.
Screening COc1ccc(NC(=O)c2ccco2)cc1NC(=O)c1ccc(C)cc1 returned HSD17B inh 14%.
CCOc1ccc(NC(=O)CSC(N)=O)cc1 was read as HSD17B inh -3%.
For Cc1ccc(C(=O)c2cncc(Br)c2)cc1 the results were HSD17B inh -8%.
CCOC(=O)C1=C(CNCc2ccccc2Cl)NC(=O)NC1c1ccc2c(c1)OCO2 (stereo unspecified) was read as HSD17B inh -15%.
Screening CCn1c(=O)cc(SCC(=O)N2CCN(c3ccccc3OC)CC2)c2ccccc21 returned HSD17B inh -5%.
CCOC(=O)c1c(C)[nH]c(C(=O)COc2ccc3c(c2)OCO3)c1C was read as HSD17B inh 7%.
`Cc1ccc(CNc2ccc(N3CCOCC3)cc2)s1` gave HSD17B inh -2%.
For O=C(c1cc2c(=O)oc3ccccc3c2s1)N1CCN(c2ncccn2)CC1 the results were HSD17B inh 3%.
Screening COc1cc(CNc2cccc(F)c2)cc(Br)c1O returned HSD17B inh -24%.
Screening O=C1[C@H]2[C@H]3[C@H](O)[C@H](O)C/C(=N/OC[C@@H](O)COCc4ccco4)[C@H]3CC[C@@H]2C(=O)N1Cc1ccccc1 returned HSD17B inh 3%[11.4 µM].
For O=C(CN1CCN(C(=O)N2CCOCC2)CC1)Nc1ccc(Br)cc1 the results were HSD17B inh -11%.
`COc1ccc(CN(Cc2nc3ccccc3c(=O)[nH]2)C(=O)NC2CCCCC2)cc1` gave HSD17B inh 1%.
Screening Cc1cc2cc(CCNC(=O)C(C)C)c(=O)[nH]c2cc1C returned HSD17B inh -14%.
`CCCCCCNC(=O)C(C(=O)OCC)C1CCCCC1` (stereo unspecified) gave HSD17B inh -2%.
For CCCCC1CCC(/C(N)=N/O)CC1 (stereo unspecified) the results were HSD17B inh 10%.
`c1ccc(-c2nc(CSc3nnc(-c4cccs4)o3)cs2)cc1` gave HSD17B inh -22%.
For COC(=O)c1[nH]c2cccc(Cl)c2c1NC(=O)CN(C)C1CCCCC1 the results were HSD17B inh -13%.
For Cn1c(=O)c2c(nc(N3CCCC3)n2CC(O)CO)n(C)c1=O (stereo unspecified) the results were HSD17B inh 2%.
`O=C(Nn1nnnc1Nc1ccccc1)C12CC3CC(CC(C3)C1)C2` gave HSD17B inh 6%.

14 entries from above, arranged by SMILES length, high to low:
Screening C[C@H]1CC[C@H]2C(=O)N3[C@H](c4ccc(Br)cc4)[C@@H](C)CC[C@H]3C(=O)N2[C@@H]1c1ccc(Br)cc1 returned HSD17B inh 2%[11.4 µM].
COC(=O)c1ccc(C23CC4(C2)[C@H](CN(Cc2ccc(C(F)(F)F)cc2)[C@@H]4c2ccccc2)C3c2ccccc2)cc1 (stereo partly specified) was read as HSD17B inh 5%.
CCOc1ccc(OCC)c(NC(=O)C(NS(=O)(=O)c2ccc3c(c2)oc(=O)n3C)C(C)C)c1 (stereo unspecified) was read as HSD17B inh 4%.
`CCN(CC)S(=O)(=O)c1ccc(NC2c3ccccc3C(=O)N2CCN2CCOCC2)cc1` (stereo unspecified) gave HSD17B inh 0%.
Screening CCc1ccccc1NC(=O)CSc1nnc([C@@H](N)Cc2ccccc2)o1 returned HSD17B inh 10%.
`O=C(COc1ccc(S(=O)(=O)N2CCCCC2)cc1)NCc1ccncc1` gave HSD17B inh 3%.
`O=C(Nn1nnnc1Nc1ccccc1)C12CC3CC(CC(C3)C1)C2` gave HSD17B inh 6%.
For Cn1c(=O)c2c(nc(N3CCCC3)n2CC(O)CO)n(C)c1=O (stereo unspecified) the results were HSD17B inh 2%.
Screening Nc1nonc1C(=O)NCCNCc1ccccc1OCc1ccccc1F returned HSD17B inh 4%.
`CCCCCN(C(=O)NC(=O)NC(C)CC)S(C)(=O)=O` (stereo unspecified) gave HSD17B inh -1%.
For Cc1ccc(C(=O)c2cncc(Br)c2)cc1 the results were HSD17B inh -8%.
CCOc1ccc(NC(=O)CSC(N)=O)cc1 was read as HSD17B inh -3%.
For O=C(NC1CCCC1)C1CC1c1ccccc1 (stereo unspecified) the results were HSD17B inh 10%.
`O=C(CCn1cccc1)Nc1ccccc1F` gave HSD17B inh -1%.

High-throughput results: PubChem BioAssay, National Center for Advancing Translational Sciences (NCATS)
